D2 PAM – positive allosteric modulators of human D2 dopamine receptor; P14416; DiscoveRx D2 beta-arrestin cells, luminescence, 90 min; 100% = 57 uM dopamine signal; potentiation, % (test concentration not listed); 360,000 tested, 0.23% active; AID 624464; active = potentiation of 50% or more; inconclusive = 30% to 50%; inactive = 30% or less;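 also: compound concentration not given in the record; tested on top of an EC20 dose of dopamine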
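PathHunter D2 cells, attached overnight at 37 deg C, received compound in DMSO plus dopamine at EC20 (50 nM final) for 90 min at 37 deg C. Beta-arrestin recruitment was read as luminescence after 1 h with detection reagent at ambient temperature.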
CtBP-E1A inh – CtBP/E1A binding inhibition | AlphaScreen GST-E1A/His-CtBP binding, 1536-well; active compounds read low; control for the full effect not named in the record | activity change, % (no concentration beside the values) | 340,000 tested, 0.49% active | AID 651724; in the data active means activity change below about -65%; inconclusive means about -30% to -65%; inactive means above about -30%; also: % is scaled to controls: 0 for no effect and ±100 for the full control effect
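GST-E1A and His-tagged CtBP (125 nM each as 5X stock) were preincubated with pin-transferred compound for 2 h at 37 °C in the dark, then glutathione donor and nickel acceptor beads were added for 1 h before AlphaScreen reading.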
TRPML1 blocker – inhibitors of human TRPML1 channel; AID 624415; 390,000 tested, 0.02% active; activity change, negative = inhibition, % (concentration not given with the values); TRPML1-inducible cells, Ca2+ dye fluorescence, FDSS; active compounds read low; inhibition of EC80 agonist-evoked calcium signal; in the data active means activity change below about -50%; inconclusive means about -30% to -50%; inactive means above about -30%;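 also: stimulus is agonist 54-4 at its EC80 concentration; % is scaled to controls: 0 for no effect and ±100 for the full control effect; the text of the record puts the active cut at -80%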
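TRPML1-DL cells, Tet-induced overnight (~16 h, 37 °C) at 1,500 cells/well, were loaded with Ca8 no-wash dye plus quencher for 45-90 min at room temperature. Compounds were pinned during FDSS kinetic reading; agonist 54-4 at EC80 (4 uM final) then added.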
TRPV1 potentiator – human TRPV1 potentiation. AID 540277. 320,000 tested, 0.02% active. Q8NER1. TRPV1-expressing cells, Fluo-8 calcium influx, capsaicin EC20 potentiation; host cell line not named in the record; control for the full effect not named in the record. potentiation, % at 8.33 µM; active means potentiation above 80%; inconclusive means 30% to 80%; inactive means below 30%; also: 0% is about no effect
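Cells expressing TRPV1 were dye-loaded with Fluo-8 and read kinetically: 10 s baseline, 3 min after compound (agonist portion), then 2 min after EC20 capsaicin (allosteric enhancer portion). Calcium-bound dye fluorescence at 480/520 nm.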
TRPML1 ag – activates the human TRPML1 channel; Q9GZU1; TRPML1-expressing cells, Ca2+ dye fluorescence, FDSS; host cell line not named in the record; reference of the full effect not given here; activation, % (test concentration not listed); 410,000 tested, 0.12% active; AID 624414; in the data active = activation above about 50%; inconclusive = about 30% to 50%; inactive = below about 30%; also: 0% is about no effect; the text of the record puts the active cut at 80%
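Kinetic FDSS Ca2+ read in Tet-induced TRPML1-DL cells (ABD Ca8 dye plus quencher, 45-90 min RT loading): baseline, then compound, then 110 s agonist window; EC80 agonist 54-4 at 4uM final added afterwards for a 110 s antagonist window.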
Six1-Eya2 inh – inhibitors of human Six1/Eya2 interaction; activity change, % (test concentration not listed); Q15475+O00167; AlphaScreen GST-Six1/His-Eya2 binding, biochemical; active compounds read low; control for the full effect not named in the record; 360,000 tested, 0.56% active; in the data active = activity change below about -65%; inconclusive = about -30% to -65%; inactive = above about -30%; also: % is scaled to controls: 0 for no effect and ±100 for the full control effect
Target sequence (O00167 whole entry, looked up): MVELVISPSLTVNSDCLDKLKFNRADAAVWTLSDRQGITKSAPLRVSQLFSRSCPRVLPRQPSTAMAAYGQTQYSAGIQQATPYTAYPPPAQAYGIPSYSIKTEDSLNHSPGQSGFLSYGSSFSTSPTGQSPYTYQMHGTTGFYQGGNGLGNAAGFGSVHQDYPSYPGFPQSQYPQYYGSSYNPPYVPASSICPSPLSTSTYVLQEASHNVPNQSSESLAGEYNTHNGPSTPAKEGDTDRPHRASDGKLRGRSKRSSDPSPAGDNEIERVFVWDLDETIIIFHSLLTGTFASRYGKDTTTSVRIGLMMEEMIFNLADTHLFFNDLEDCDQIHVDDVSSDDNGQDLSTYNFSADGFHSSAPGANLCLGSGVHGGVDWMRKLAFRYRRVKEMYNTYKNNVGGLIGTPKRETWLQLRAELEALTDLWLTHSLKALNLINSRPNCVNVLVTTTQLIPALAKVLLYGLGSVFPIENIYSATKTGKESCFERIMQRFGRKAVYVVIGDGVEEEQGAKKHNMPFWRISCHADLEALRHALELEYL
Target sequence (Q15475 whole entry, looked up): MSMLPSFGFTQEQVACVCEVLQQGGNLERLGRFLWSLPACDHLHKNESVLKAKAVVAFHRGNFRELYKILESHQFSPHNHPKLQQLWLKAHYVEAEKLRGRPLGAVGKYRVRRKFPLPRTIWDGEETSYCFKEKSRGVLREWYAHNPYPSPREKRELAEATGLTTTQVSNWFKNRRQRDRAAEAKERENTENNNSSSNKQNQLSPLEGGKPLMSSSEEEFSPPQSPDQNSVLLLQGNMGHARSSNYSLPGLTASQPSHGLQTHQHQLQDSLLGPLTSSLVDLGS
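GST-Six1 + His-Eya2 (5X stock: 250/500 nM); Tris pH 8.0, 300 mM NaCl, 0.05% BSA, 0.02% Tween 20; GSH donor/Ni acceptor beads; 1 h 37 °C dark; AlphaScreen readout.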
* marks the source's active call; other numbers are inactive results; ? = inconclusive; . = not tested or not shown; & = joins results of further samples.

Molecule,D2 PAM,TRPML1 blocker,CtBP-E1A inh,Six1-Eya2 inh,TRPV1 potentiator,TRPML1 ag
CCCC(=O)N1CCc2[nH]c3ccccc3c2C1,5.2,-10.4,-2.5,-6.2,-11.7,1.7
COc1ccccc1OCCSc1nc(C)c(Cc2ccccc2)c(=O)[nH]1,-3.3,9.4,-0.7,-6.3,11.8,2.8
COc1ccc(NS(=O)(=O)c2cccc(C(=O)OCC(=O)Nc3cc(C)on3)c2)cc1,-3.3,-1.1,0.3,0.1,8.7,-0.5
COc1ccc(S(=O)(=O)Nc2cccc3ccc(O)cc23)cc1,-3.8,4.2,4.8,0.2,.,-0.7
Cc1nc2ccc(N)cc2s1,-3.5,26.5,0.2,2.7,-6.0,-0.2
Nc1ccc(N2CCOCC2)c2nonc12,1.6,-8.0,.,-5.9,-8.1,2.9
Cc1cc(C(=O)N2CCN(C(=O)c3ccco3)CC2)ccc1[N+](=O)[O-],-6.2,6.7,6.7,7.2,0.6,1.5
CCCCOc1ccc(S(=O)(=O)NC(=O)C2(C)CCN2C(=O)c2c(C)noc2C)cc1 (stereo not given),-0.6,.,5.5,1.4,.,-0.4
O=C(O)c1cnn2c(C(F)F)cc(C3CC3)nc12,-3.5,33.5,-1.1,3.3,-1.7,0.4
CC(C)C[C@H]1CN(CCCC[C@@H]2CNC(=O)C(=O)N2CC2CCCCC2)C(=O)C(=O)N1CCc1ccccc1,.,.,33.0,14.7,.,-0.7
Cc1ccc(F)cc1NC(=O)COC(=O)c1ccc2ncsc2c1,-11.7,-14.0,.,-3.1,8.0,-1.3
Cc1ccc(NS(=O)(=O)c2ccc(C(=O)Nc3nncs3)cc2)cc1,6.8,5.6,-9.5,-7.9,.,-0.4
CCS(=O)(=O)N1N=C(c2cccc(NS(C)(=O)=O)c2)CC1c1ccc(C)cc1 (stereo not given),-9.9,1.7,15.3,-0.7,17.7,1.8
COc1ccccc1NC(=O)C1CCN(S(=O)(=O)c2cccs2)CC1,-12.6,-7.8,11.8,0.2,-11.3,-0.5
O=C(/C=C1\C(=O)Nc2ccccc21)/C=C1\C(=O)Nc2ccccc21,-8.3,-4.4,-8.6,-1.6,-0.3,0.8
O=C(Nc1nnc(S(=O)(=O)N2CCOCC2)s1)c1ccccc1F,-9.3,54.9&39.4,.,0.1,24.6,0.9&0.1
CCOc1ccc(/C=C/C(=O)Nc2ccc3[nH]c(=O)[nH]c3c2)cc1,0.6,-6.9,-3.3,5.8,?,1.3
OCc1ccc(O)c2ncccc12,?,20.3,-91.6*,-88.0*,4.2,-1.1
Cn1c(N)c(C(C[N+](=O)[O-])c2c(F)cccc2Cl)c(=O)n(C)c1=O (stereo not given),-9.9,-12.8,0.6,2.9,-1.5,-0.2
Cc1c(C(=O)Nc2cnccn2)oc2ccccc12,-1.6,4.3,51.0,22.4,-19.2,0.4
O=C(N/N=C/c1ccsc1)c1cc(O)cc(O)c1,-6.8,10.0,-8.6,-12.9,1.5,1.1
Clc1ccc(C2CC(c3ccccc3)Nc3ncnn32)cc1 (stereo not given),-1.0,18.2,1.7,-3.4,?,2.1
C/C(Cn1nnc([N+](=O)[O-])n1)=N\NC(=O)c1ccccc1,58.8*,4.9,8.7,-0.3,4.4,0.1
N#Cc1c(NCc2ccccc2)ccnc1NCc1cccnc1,3.2,-7.3,3.9,-2.6,2.9,1.0
CS(=O)(=O)N1CCC(C(=O)Nc2ccc(Cl)c(C(F)(F)F)c2)CC1,-16.5,-10.1,2.3,5.9,-15.4,0.2
CSCCC(NC(=O)c1ccco1)C(=O)NNC(=O)c1n[nH]c(=O)c2ccccc12 (stereo not given),-2.5,-4.3,-15.6,0.0,.,0.2
CCCCc1cc(=O)oc2cc(OCC(=O)NCCN3CCOCC3)ccc12,-0.4,-13.5,3.7,0.1,?,-0.4
Cc1cccc(CN2CCN(C3CN(Cc4ccc([N+](=O)[O-])cc4)S(=O)(=O)C3)CC2)c1 (stereo not given),-5.9,.,-1.4,-10.0,.,-0.6
S=C1NC[C@H](Cc2ccccc2)N1CC1CCN(CCCCc2ccccc2)CC1,-14.0,-10.9,-2.2,-5.1,.,-0.4
CC(=O)Nc1cnc(-c2cccc(C(=O)N(C)C)c2)cn1,-0.3,.,0.9,0.8,.,0.2
CCc1ccc(OCC(=O)NC(NC(=S)Nc2ccc(C)cc2C)C(Cl)(Cl)Cl)cc1 (stereo not given),-17.5,2.9,6.0,-9.0,-0.9,0.6
COc1cccc(CN2CCC(n3nccc3NC(=O)CCOc3ccccc3)CC2)c1,-29.6,14.6,-4.0,-4.3,4.5,-1.3
CCOc1ccc(-n2c(SCC(=O)NC)nnc2-c2ccco2)cc1,-1.6,26.3,-2.7,-8.9,9.2,0.1
COC(=O)CC/C(O)=C1\C(=O)CC(C)(C)CC1=NCc1nc2ccccc2[nH]1,-5.9,-10.1,-3.0,-1.6,18.0,-0.8
CCOC(=O)N1CCC(N2CCCC(C(=O)c3cccc(OC(C)C)c3)C2)CC1 (stereo not given),-5.3,-13.9,-5.6,6.6,-1.0,0.5
COc1ccccc1C1NC(=O)NC(C)=C1C(=O)OC1CCCC(C)C1 (stereo not given),-2.1,1.7,-1.7,-3.6,-3.4,1.3
COc1ccccc1CCC(=O)NNC(=O)c1ccncc1,0.2,7.9,0.5,9.5,20.9,-0.2
CN(C)S(=O)(=O)c1cccc(NC(=O)CCNC(=O)Nc2ccccc2)c1,-3.9,1.7,7.3,1.2,.,-0.4
CCOC(=O)c1ccc2[nH]c3c(c2c1)CCCCC3=O,1.7,0.2,-8.9,-14.4,-8.0,1.5
Cc1ccc(S(=O)(=O)N2[C@@H](c3ccc(C#N)cc3)C(C(=O)O)=C[C@H]2C(C)(C)C)cc1,.,-1.4,0.0,3.0,.,-0.2
CCOC(=O)C(N)CSC1CC(=O)N(CCc2ccccc2)C1=O (stereo not given),-0.5,3.0,-14.4,4.3,-1.2,0.3
CCOc1cccc(C(=O)Nc2cccc(-c3nnc(-c4ccccc4)o3)c2)c1,-4.4,15.2,3.9,3.9,23.0,-0.3
Cc1ccc2cc(CN(c3cccc(C)c3C)S(=O)(=O)c3ccccc3)c(=O)[nH]c2c1,-6.8,10.3,-6.6,2.2,8.6,2.4
NS(=O)(=O)c1ccc(NC(=O)c2ccccc2Cl)cc1,-20.6,6.2,-10.7,4.0,6.0,0.8
Cn1c(=O)oc2cc(S(=O)(=O)N3CCCC(C(=O)Nc4ccc5c(c4)OCCO5)C3)ccc21 (stereo not given),-3.9,8.3,-1.5,-9.4,.,0.4
CC(C)CNC(=O)c1ccc2c(c1)C(=O)N(Cc1ccco1)C2=O,2.7,-2.3,4.0,-4.9,18.3,0.6
Cc1cccc(OCC(=O)Nc2ccc3c(c2)OCCO3)c1,-16.3,0.2,2.1,-0.1,-4.7,3.0
O=C(COc1ccc(F)cc1Cl)N1CCN(C(=O)c2cccs2)CC1,3.2,-19.5,27.4,-0.4,.,-0.3
CC(C)=CCC[C@](C)(O)C1CC[C@]2(C)C1C(O)CC1[C@@]3(C)CCC(O)C(C)(C)C3C(O[C@@H]3OC(CO)C(O)C(O)C3O[C@@H]3OC(C)C(O)C(O)C3O)C[C@]12C (stereo not given in full),-7.0,-18.0,-20.6,0.3,.,1.0
CCC(C)[C@H](NC(=O)NCCCn1ccnc1)C(=O)OC (stereo not given in full),-7.5,3.5,3.2,4.1,11.8,0.4
c1cncc(-c2cn(C[C@H]3CC[C@H](Cn4cc(-c5cccnc5)nn4)O3)nn2)c1,-1.9,-4.2,7.4,1.5,.,-0.8
CC(=O)C(C(C)=O)c1c(Cl)c(O)c(O)c2c(C(=O)c3ccccc3)coc12,102.6*,-11.7,-12.8,-17.7,3.9,0.3
CC(O)c1nc2ccccc2n1Cc1nnc(-c2ccc(Cl)cc2)o1 (stereo not given),-11.8,-12.3,2.4,3.1,-9.4,3.1
CN(C)c1ncnc2c1ncn2C1CCCCO1 (stereo not given),-3.5,4.8,-3.7,-24.0,.,-0.4
COC(C[C@@H](O)C[C@H](O)COCc1ccccc1)OC,-0.2,-3.7,8.1,5.2,16.1,1.0
C[C@H]1[C@H]2c3nc4ccccc4n3C[C@H]1ON2C1CCCCC1,-8.5,3.7,2.1,6.8,-11.9,-0.7
CN(C)CCNc1nc2c(c(=O)[nH]c(=O)n2C)n1CC(O)COc1ccc(Cl)cc1 (stereo not given),-17.6,15.9,5.8,0.0,?,-0.5
O=C(NC1CCCCC1)c1cc(Cl)nc2ccccc12,-17.1,32.2,-4.8,4.8,11.0,1.7
CCN(Cc1nc(-c2cccc(C)c2)no1)C(=O)c1ccco1,-2.6,5.4,-14.9,5.4,25.4,0.6

Arranged by value in CtBP-E1A inh (low to high): three of the compounds above.
SMILES	D2 PAM	TRPML1 blocker	CtBP-E1A inh	Six1-Eya2 inh
CCN(Cc1nc(-c2cccc(C)c2)no1)C(=O)c1ccco1	-2.6	5.4	-14.9	5.4
CCc1ccc(OCC(=O)NC(NC(=S)Nc2ccc(C)cc2C)C(Cl)(Cl)Cl)cc1 (stereo not given)	-17.5	2.9	6.0	-9.0
CCS(=O)(=O)N1N=C(c2cccc(NS(C)(=O)=O)c2)CC1c1ccc(C)cc1 (stereo not given)	-9.9	1.7	15.3	-0.7

At a glance, 3 of the compounds above:
Molecule,D2 PAM,TRPML1 blocker,CtBP-E1A inh,Six1-Eya2 inh,TRPV1 potentiator,TRPML1 ag
CC(=O)C(C(C)=O)c1c(Cl)c(O)c(O)c2c(C(=O)c3ccccc3)coc12,102.6*,-11.7,-12.8,-17.7,3.9,0.3
CC(O)c1nc2ccccc2n1Cc1nnc(-c2ccc(Cl)cc2)o1 (stereo not given),-11.8,-12.3,2.4,3.1,-9.4,3.1
CN(C)c1ncnc2c1ncn2C1CCCCO1 (stereo not given),-3.5,4.8,-3.7,-24.0,.,-0.4

Source: PubChem
